HIV TAR-Tat = HIV-1 TAR-Tat binding disruption | HIV-1 TAR RNA, Tat peptide displacement FRET; active compounds read high | z-score (test concentration not listed) | 100,000 tested, 0.6% active | AID 1259389;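 also: score is relative to mean and SD of negative controls; some compounds called inactive have numbers as strong as hits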
CDC25B CDK2 inh = human CDC25B-CDK2/CyclinA binding inhibition; AID 1259370; z-score (test concentration not listed); HTRF CDC25B-CDK2/CyclinA binding, anti-His/anti-Flag; active compounds read high; 94,000 tested, 0.72% active;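 also: score is relative to mean and SD of negative controls; strong numbers were not always called active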
The depositor's hits bear a star; x = not tested or not shown.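 The calls were made as follows: active = z-score from 3 up in half or more of its runs; inactive = the rest.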

SMILES | HIV TAR-Tat | CDC25B CDK2 inh
Cn1nnc2c(N3CCN(Cc4ccc5c(c4)OCO5)CC3)ncnc21 | 2.5 | x
CC(=O)N(C)Cc1nc2ccccc2n1CC(=O)N(C)c1ccccc1 | 0.35 | 0.4
Cc1ccccc1Cn1c(=O)n(CCCC(=O)NCc2ccco2)c(=O)c2sccc21 | x | -1.9
CCOC(=O)c1ccc(N2C(=O)c3n[nH]c(-c4ccco4)c3C2c2ccc(C)cc2)cc1 (stereo unspecified) | 1.1 | x
O=C(CCc1nc(-c2cccs2)no1)NC1CCCCC1 | -0.23 | -0.93
O=[N+]([O-])c1ccc(-c2csc(COc3ccc(C4SCCS4)cc3)n2)cc1 | x | -2
Cn1c(Cn2c3ccccc3c3ccccc32)nnc1SCC(=O)O | x | -1.1
CC1CCCCC1NS(=O)(=O)c1cc(Br)cc2c1N(C(=O)C1CC1)CC2 (stereo unspecified) | x | -0.16
CCN1CCN(c2nc3ncn(CC(=O)Nc4ccc5c(c4)OCCO5)c(=O)c3s2)CC1 | 1.8 | x
CC1(C)C(=O)C2(CCCCC2)C(=O)OC1C(=O)c1ccccc1 (stereo unspecified) | x | -2.5
CCC(C)NC(=O)N1CSC[C@@H]1C(=O)NCc1csc(C)n1 (stereo partly specified) | 1.1 | x
CCOC(=O)c1c(C)oc2ncnc(NC3CCN(C(=O)OCC)CC3)c12 | 0.87 | 0.2
COc1cccc(CC(=O)NNC(=O)c2ccc(-c3cccs3)s2)c1 | x | -2.6
CC(C)CCOc1ccc(C2(C)NC(=O)NC2=O)cc1 (stereo unspecified) | 0.92 | -2.1
Cc1ccnc(SCC(=O)N2CCN(c3ccc(=O)n(-c4ccc(Cl)cc4)n3)CC2)n1 | -0.62 | x
CCCCN(c1ccccc1)S(=O)(=O)c1ccc2c(c1)oc(=O)n2CC(=O)OCC | -2.2 | -1.9
COCCNC(=O)c1c(NC(=O)c2cc(=O)c3cc(Cl)ccc3o2)sc2c1CCCC2 | 3.8 | -0.51
O=S(=O)(c1ccc2oc(-c3ccncc3)nc2c1)c1ccc2oc(-c3ccncc3)nc2c1 | 1.1 | -0.85
O=c1[nH]c(-c2ccccc2)nc2c1Cc1ccccc1O2 | 0.12 | -0.62
CCCCN1C(=O)C2(/C(=C(/O)c3ccc4c(c3)CC(C)O4)C(=O)C(=O)N2CCOC)c2ccccc21 (stereo unspecified) | 1.4 | 1.4
Cc1cc(=O)[nH]c(Nc2ccccc2)n1 | 0.8 | -0.64
CCOc1ccc2ncc(S(=O)(=O)c3ccc(C)cc3)c(N(CC)CC)c2c1 | -0.35 | 0.9
CC1CCc2sc3ncnc(N4CCN(C)CC4)c3c2C1 (stereo unspecified) | x | 1.1
O=C1c2oc3ccccc3c(=O)c2C(c2cccc(O)c2)N1Cc1ccccc1Cl (stereo unspecified) | 0.73 | -1.3
Cc1nc(N2CCOCC2)cc(N2CCN(C(=O)Nc3ccc(F)cc3)CC2)n1 | -0.05 | -0.03

Continued; the last two above are carried over.
SMILES | HIV TAR-Tat | CDC25B CDK2 inh
O=C1c2oc3ccccc3c(=O)c2C(c2cccc(O)c2)N1Cc1ccccc1Cl (stereo unspecified) | 0.73 | -1.3
Cc1nc(N2CCOCC2)cc(N2CCN(C(=O)Nc3ccc(F)cc3)CC2)n1 | -0.05 | -0.03
CN(C)c1ccc(CNS(=O)(=O)c2ccc(-c3ccc(=O)[nH]n3)o2)cc1 | 0.56 | x
O=C1Cc2cc(S(=O)(=O)NCCC(c3ccccc3)c3ccccc3)cc3c2N1CCC3 | 1.8 | x
CN(C)S(=O)(=O)c1ccc(S(=O)(=O)N(Cc2ccc(Cl)cc2)Cc2ccco2)cc1 | 0.14 | -2.1
O=C(CSc1ccc(-c2cccnc2)nn1)N1CCc2ccccc21 | 1.7 | x
Cc1[nH]c2ccccc2c1C(=O)C(=O)Nc1ccc(N(C)C)cc1 | x | -3.3
O=C(Nc1cc(F)c2nc(N3CCOCC3)ccc2c1)c1cccs1 | 1.6 | x
Cn1cc(C(=O)Nc2ccc(F)c(Cl)c2)c(N)n1 | x | -1.7
CN1C(C(=O)Nc2cccc(O)c2)=CC(c2ccco2)=NS1(=O)=O | 2.8 | -2.7
O=C(OCc1cc(=O)n2nc(C3CCCCC3)sc2n1)c1ccccc1 | 0.63 | x
CC(C(=O)NCc1ccccc1Br)n1sc2ccccc2c1=O (stereo unspecified) | 1.3 | -1.6
O=C(COC(=O)CCCC1=NS(=O)(=O)c2ccccc2N1)Nc1ccc(Br)cc1 | 3.3 | x
COc1ccc2c(c1)c(NC(C)=O)c1n2CC(C)(C(=O)NCCC(C)C)N(CC2CCCO2)C1=O (stereo unspecified) | 0.66 | x
CCN1C(=O)Cc2cc(NC(=O)C(C)C)ccc21 | 0.43 | x
Fc1ccc(CSc2nnnn2-c2ccc3c(c2)OCO3)cc1 | 1 | 0.89
Cc1nn(C(C)C(=O)N2CCN(C(=O)c3ccco3)CC2)c(=O)c2c1sc1ccccc12 (stereo unspecified) | 1.5 | -0.96
CC(C)(C)C(=O)NCC1COc2ccccc2O1 (stereo unspecified) | x | 0.61
C=CCSc1n[nH]c(=O)n1C1CCCCC1 | x | -1.4
O=C(CSc1nc(-c2ccc3c(c2)OCO3)nc2cc(=O)[nH]n12)NCC1CCCO1 (stereo unspecified) | 2.8 | x
CCOC(=O)N1CCC(NC(=O)CCc2c(C)nc3c(c(C)nn3C(C)(C)C)c2C)CC1 | 0.71 | 0.33
COc1ccc(-c2csc3nc(C)oc(=O)c23)cc1OC | 1.1 | 11
CCc1nn2c(=O)cc(COc3c(C)cccc3C)nc2s1 | 1.1 | -0.81
CCOC(=O)N1CCN(c2c(NCCN3CCCC3)c(=O)c2=O)CC1 | -0.16 | -1.7
CC1(C(=O)NC2CCCC2)Cn2c(c(-n3cccc3)c3ccccc32)C(=O)N1Cc1ccco1 (stereo unspecified) | 0.83 | x
Cc1cc(-c2ccc(C)c(S(=O)(=O)N(Cc3ccco3)C3CCCC3)c2)on1 | 0.92 | x
Cc1cc(=O)nc2c3ccccc3n(C(C)C(=O)Nc3ccc4c(c3)OCCO4)n12 (stereo unspecified) | -0.86 | -1.4

Continued:
SMILES | HIV TAR-Tat | CDC25B CDK2 inh
O=S(=O)(Nc1ccc(Br)cc1F)c1ccc(-c2cnc(C3CC3)o2)cc1 | 1.3 | x
O=C1N(Cc2ccccc2F)c2ccccc2S(=O)(=O)N1c1ccc(F)cc1 | 0.33 | x
COC(=O)c1ccc(C(=O)OC)c(NC2c3ncccc3C(=O)N2Cc2cccs2)c1 (stereo unspecified) | -0.18 | -1
COc1ccc(NS(=O)(=O)c2ccc(N3CCCC3=O)cc2)cc1OC | 0.66 | x
Nc1ccc(S(=O)(=O)NCc2ccco2)cc1 | 1.9 | 0.64
O=c1sc(Nc2ccccc2)nc2ccsc12 | -0.78 | -0.09
CCOC(=O)C1=C(C)NC2=C(C(=O)CCC2)C1c1cc2c(cc1Br)OCO2 (stereo unspecified) | 0.15 | 0.6
CCOC(=O)c1noc2ncn(C(CC)C(=O)NCc3cccs3)c(=O)c12 (stereo unspecified) | -0.17 | x
CC1CCN(C(=O)CC(C)S(=O)(=O)c2ccc3c(c2)NC(=O)C(C)S3)CC1 (stereo unspecified) | -1.2 | x
COc1ccccc1N1C(=O)C2C(c3ccc(Cl)cc3)OC3(C(=O)c4ccccc4C3=O)C2C1=O (stereo unspecified) | 0.29 | -1.7
CCOC(=O)C(Cc1c[nH]c2ccccc12)NC(=O)CN1C(=O)c2ccccc2C1=O (stereo unspecified) | x | 1
COc1ccc(Cn2nnc3cc(C(=O)O)ccc32)cc1 | 1.2 | x
O=c1ccn(C2CCCO2)c(=O)n1Cc1ccccc1F (stereo unspecified) | -1.6 | -0.88
CC1CCCCC1NC(=O)C1CCCN(c2nnc(-n3cccc3)s2)C1 (stereo unspecified) | -0.08 | -2.7
COc1ccc(C(=O)COc2cc3c(C(=O)OC(C)C)c(C)oc3cc2Br)cc1 | 2.9 | -1.6
CCOc1cc(Br)c(C2C(C(=O)OC)=C(C)NC3=C2C(=O)c2ccccc23)cc1OCC (stereo unspecified) | -0.61 | -0.05
COc1cc(-c2oc3cc(O)cc(O)c3c(=O)c2O[C@@H]2O[C@H](CO)[C@@H](O)[C@H](O)[C@H]2O)cc(OC)c1O | 0.24 | x
N#Cc1nc(/C=C/c2cccs2)oc1NCc1ccc(F)cc1 | 2.1 | 0.09
CCOC(=O)C1=C(CC)NC2=C(C(=O)CCC2)C1c1ccc(Br)cc1 (stereo unspecified) | 0.67 | 0.14
CCCN1CCN(c2ncc3c(n2)CCN(Cc2ccc(C)c(C)c2)C3)CC1 | 0.89 | x
O=C(CCCn1c(=O)c2cccn2c2cccnc21)NC1CCCCC1 | -0.96 | x
COC(=O)C(C)NC(=O)N1CCC2(CC1)Nc1cc(F)ccc1-n1cccc12 (stereo unspecified) | 0.46 | x
Cc1ccc(NS(=O)(=O)c2c(C)nc3sc(C)cn3c2=O)c(Cl)c1 | -0.21 | x
O=C(NCCCn1ccnc1)c1ccc2c(c1)OCO2 | -0.13 | -0.78
S=c1[nH]c(=S)c2c3c(sc2[nH]1)CN(Cc1ccccc1)CC3 | x | 1.8

Additional records
SMILES | HIV TAR-Tat | CDC25B CDK2 inh
O=C(NC1CCCCC1)C1CC(=O)N(CCc2c[nH]c3ccc(Cl)cc23)C1 (stereo unspecified) | 0.02 | -0.78
COc1cccc(Nc2ncnc3c2cnn3-c2cccc(Cl)c2)c1 | 2 | x
CCc1nnc2sc(-c3cccc(C)c3)nn12 | -0.45 | -1.3
CC1=C(c2ccc(F)cc2)S(=O)(=O)N=C1Nc1ccc2c(c1)OCO2 | 0.2 | x
COC(=O)c1c(SCC(=O)Nc2ccc(F)cc2F)[nH]c2ccc(Cl)cc2c1=O | 0.61 | x
CC1CS(=O)(=O)N(c2ccc(S(=O)(=O)N3CCc4ccccc4C3)cc2)C1=O (stereo unspecified) | -1.5 | -0.16
Cc1cc(N2CCOCC2)n2nc(-c3ccc(Cl)cc3)nc2n1 | 2.2 | -1.9
CC(=O)N1c2ccccc2CC1C(=O)N1CCc2ccccc2C1 (stereo unspecified) | 0.52 | x
Cc1cc(NC(=O)CSc2nc3nccnc3c(=O)n2Cc2ccco2)n[nH]1 | 2 | -2.6
O=C(O)CSCC(=O)Nc1ccc2c(c1)C(=O)OC2 | x | -1.2
CCC(C)(C)NS(=O)(=O)c1c(C(=O)N2CCC(C)CC2)c(C)n(C)c1C | 0.1 | x
CCNCC1OCCc2ccccc21 (stereo unspecified) | -0.98 | -0.34
O=c1c2cc(-c3ccccc3)sc2nc2n1N=C(c1cccs1)CS2 | x | -1.2
COc1ccc(C2Nc3c(C)cccc3-c3cc(C)nn32)c(OC)c1 (stereo unspecified) | 0.5 | -1.9
O=C(O)/C=C/C(=O)Nc1ccccc1SCc1ccccc1Cl | x | 5.5
O=c1c2nccnc2nc(SCc2ccc(F)cc2)n1Cc1cccs1 | 1.3 | x
O=C(NCCCN1CCOCC1)C1CCN(c2nn3c(=O)c4c(nc3s2)CCCC4)CC1 | 2.8 | x
CCn1nc2n(c1=O)-c1ccccc1OC2 | 1.3 | -1.5
O=S(=O)(c1ccccc1)c1nnn2c1nc(NCCc1ccccc1)c1sccc12 | 0.68 | x
O=S1(=O)C[C@H](NCCc2ccc(F)cc2)[C@@H](S(=O)(=O)c2ccccc2)C1 | -0.05 | 0.48
COc1ccc2nc(NC(=O)Cc3noc4ccccc34)sc2c1 | 0.79 | -1.3
CCCNS(=O)(=O)c1ccc2c(c1)CCN2C(=O)CC | x | -0.25
Cc1c(C(=O)N2CCOCC2)oc2ccc(S(=O)(=O)N3CC(C)CC(C)C3)cc12 (stereo unspecified) | x | 4.7
CC(C)CCNC(=O)Cn1ccc2cc(S(=O)(=O)N3CCCC3)ccc21 | -0.75 | x
O=C(NC(=S)Nc1cccc(C(F)(F)F)c1)c1ccc([N+](=O)[O-])o1 | x | -0.76

(more compounds)
SMILES | HIV TAR-Tat | CDC25B CDK2 inh
CC1=C(C(=O)NCCCSC2CCCCC2)C2(CCCCC2)OC1=O | -0.32 | -0.97
COc1ccc(OC)c(S(=O)(=O)NC2CC2)c1 | x | -1.1
Clc1ccc2c(c1)NNc1nncn1-2 | x | 0.38
O=C(Nc1nccs1)c1ccc(S(=O)(=O)N2CCOCC2)cc1 | x | -0.36
CC(C)C(=O)OCc1cc(=O)n2nc(C3CCCCC3)sc2n1 | -1.9 | x
Nc1ccc(F)cc1NC(=O)c1ccc(CNC(=O)/C=C/c2cccnc2)cc1 | 0.86 | x
COC(=O)c1c(SCc2ccccc2)[nH]c2ccccc2c1=O | 1.6 | x
COc1cc(NC(=O)c2cnc(SC)nc2C(F)(F)F)cc(OC)c1 | 0.37 | x
O=C(Nc1cc2ccccc2s1)N1CCN(Cc2c(F)cccc2Cl)CC1 | x | -0.97

Filtered by structure: the compounds so far with an aryl methoxy group (13)
SMILES | HIV TAR-Tat | CDC25B CDK2 inh
COc1cccc(CC(=O)NNC(=O)c2ccc(-c3cccs3)s2)c1 | x | -2.6
COc1ccc2c(c1)c(NC(C)=O)c1n2CC(C)(C(=O)NCCC(C)C)N(CC2CCCO2)C1=O (stereo unspecified) | 0.66 | x
COc1ccc(-c2csc3nc(C)oc(=O)c23)cc1OC | 1.1 | 11
COc1ccc(NS(=O)(=O)c2ccc(N3CCCC3=O)cc2)cc1OC | 0.66 | x
COc1ccccc1N1C(=O)C2C(c3ccc(Cl)cc3)OC3(C(=O)c4ccccc4C3=O)C2C1=O (stereo unspecified) | 0.29 | -1.7
COc1ccc(Cn2nnc3cc(C(=O)O)ccc32)cc1 | 1.2 | x
COc1ccc(C(=O)COc2cc3c(C(=O)OC(C)C)c(C)oc3cc2Br)cc1 | 2.9 | -1.6
COc1cc(-c2oc3cc(O)cc(O)c3c(=O)c2O[C@@H]2O[C@H](CO)[C@@H](O)[C@H](O)[C@H]2O)cc(OC)c1O | 0.24 | x
COc1cccc(Nc2ncnc3c2cnn3-c2cccc(Cl)c2)c1 | 2 | x
COc1ccc(C2Nc3c(C)cccc3-c3cc(C)nn32)c(OC)c1 (stereo unspecified) | 0.5 | -1.9
COc1ccc2nc(NC(=O)Cc3noc4ccccc34)sc2c1 | 0.79 | -1.3
COc1ccc(OC)c(S(=O)(=O)NC2CC2)c1 | x | -1.1
COc1cc(NC(=O)c2cnc(SC)nc2C(F)(F)F)cc(OC)c1 | 0.37 | x

Bioassay records from PubChem.
